Mtb hypoxia rep = PubChem AID 1159583; M. tuberculosis hypoxia-regulated fluorescent reporter, fluorescence; fluorescence inhibition, % (no concentration beside the values); 0.1% of 300,000 active;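 active means 35 to 45% if threefold the growth effect, above 45% if 1.5-fold the growth effect; inactive means the rest, general growth blockers included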;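 further: wells of about 50 µL received 100 nL stock; 0% = vehicle wells and 100% = reference inhibitor wells; whole bacteria with a GFP reporter of the hypoxia response; strong numbers were not always called active; many hits fall short of the cut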
Sa RN4220 lethal = growth inhibition of S. aureus RN4220, primary screen, OD600; 16 h; inhibition, % (concentration not given with the values); 0.33% of 330,000 active;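 active means z-score of -3 or lower and OD600 up to 0.18 on both plates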;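 further: plate controls were untreated cells for no effect and reference antibiotic for full effect; stock transfer was 100 nL into about 80 µL; one replicate is shown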
Bead autofluor = compound fluorescence in toxin protease inhibitor counterscreen; compound autofluorescence counterscreen, microsphere flow cytometry; stronger effect = higher value; fluorescence intensity (concentration not given with the values); 3.1% of 360,000 active; AID 624483;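 active means at least 3 SD above the mean of all compounds, about 16000 in these data; inconclusive means too few beads counted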;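 further: 100 nL of 1 mM stock went into each well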
Sa ugtP lethal = growth inhibition of ugtP-null S. aureus, primary screen, RN4220 ugtP deletion, OD600; 16 h; some inactives read as strong as hits; growth inhibition, % (test concentration not listed); 0.54% of 330,000 active; AID 1259309, 2017;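 active means z-score under -3 and OD600 up to 0.15 on both plates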;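 further: plate controls were untreated wells for no effect and antibiotic for full effect; wells of about 80 µL received 100 nL stock; the first replicate is given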
PrP UTR inh = inhibition of PrP 5' UTR reporter expression; cell-based PrP 5' UTR mRNA reporter, plate reader; inhibition, % (test concentration not listed); 0.35% of 340,000 active;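 active means every replicate at 50% or more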;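 further: 0 = median of the neutral control wells; tested in H4 reporter cells; numbers are from one replicate; inactives centre near -14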
BJeLR lethal = MLPCN primary cell-based screen for lethality selective to Ras in HRASV12 cells. BJeLR (HRASV12) viability, CellTiter-Glo ATP luminescence, 48 h; reference of the scale not given here. inhibition, % (no concentration beside the values). 0.17% of 300,000 active;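 active means replicate mean above 50%; inconclusive means above 50% but judged a plate artefact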;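 further: 50 nL library stock added to about 25 µL; numbers are from one replicate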
Mtb hypoxia rep growth = second read-out of Mtb hypoxia rep, no call of its own (marks repeat the call); growth inhibition, %; measured here: M. tuberculosis growth (absorbance);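 0% = vehicle and 100% = reference antibiotic; read after six days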
The depositor's hits bear a star; ? = inconclusive; · = not tested or not shown.

Molecule | Mtb hypoxia rep | Mtb hypoxia rep growth | Sa RN4220 lethal | Bead autofluor | Sa ugtP lethal | PrP UTR inh | BJeLR lethal
Cc1ccc(C(=O)Nc2cccc(S(=O)(=O)N3CCCCC3)c2)cc1[N+](=O)[O-] | -2 | -4 | -3.4 | ? | -11 | 1 | ·
COc1ccc(CCNC(=O)CSc2nnc3ccc(-c4ccncc4)nn23)cc1 | -4 | -4 | 0.0 | 5794 | -9 | -28 | 7
O=Cc1cn(-c2ccccc2)nc1-c1cc2c(ccc3ccccc32)oc1=O | -8 | 9 | 16 | 2829 | -14 | -16 | ·
CN1CC(=O)N(C)c2ncn(Cc3ccccc3)c2C1=O | · | · | 1.0 | 2169 | 0 | -18 | -3
O=C(COc1ccccc1)Nc1ccc(S(=O)(=O)N2CCOCC2)cc1 | 7 | 7 | -18 | 2580 | -6 | -15 | 4
COc1cc(C(=O)NCCc2ccc3c(c2)OCCO3)ccc1OCC(=O)N1CCOCC1 | 3 | 4 | 6.4 | 16542* | -3 | -17 | 1
O=C(Cc1ccc(F)cc1)N(c1ccccc1)C1C=CS(=O)(=O)C1 (stereo not drawn) | 14 | 6 | 5.1 | 10433 | 1 | -26 | -6
O=C(NCCc1ccc2c(c1)OCO2)C1CCN(S(=O)(=O)c2ccc(Cl)cc2)CC1 | -13 | -11 | 4.7 | 7941 | 4 | -10 | 7
COc1ccccc1NC(=O)CCCc1nnc2n(C)c(=O)c3sccc3n12 | 3 | -4 | 3.4 | 6732 | -8 | -3 | -2
CCCN(CCC)Cc1c(C(=O)OCC)nnn1-c1nonc1N | · | · | 6.7 | 2064 | 4 | 4 | 0
COCCCC1CCN(C(=O)C2CCC(=O)N(Cc3ccccc3F)C2)CC1 (stereo not drawn) | -2 | 12 | -0.3 | 7012 | 2 | 2 | -3
Cc1nn(CC2CC2)c(=O)n1-c1ccc(C(C)C)cc1 | 9 | 0 | 0.9 | 4175 | 9 | -1 | 8
Cc1ccc(-c2csc(NC(=O)CSc3nnc4c(n3)[nH]c3ccccc34)n2)cc1 | 10 | 1 | -2.7 | 2205 | -14 | -32 | ·
CCOc1ccc(-c2cn(CCC#N)cn2)cc1 | -6 | -8 | 1.8 | 6491 | 9 | 2 | -2
COc1ccccc1C(=O)COC(=O)C1(C)CC1(Cl)Cl (stereo not drawn) | 21 | 10 | 4.7 | 3956 | 18 | -57 | ·
CCOC(=O)c1c2n(c3ccc(OC(C)=O)cc13)CCC2 | 5 | 8 | -10 | 5690 | -5 | -2 | -4
O=Cc1c(-c2ccc(Cl)cc2)oc2ccc(O)cc12 | 1 | -2 | -3.4 | · | -10 | · | -11
CC(C)OC(=O)c1ccc(NC(=S)NC(=O)c2cncc(Br)c2)cc1 | · | · | 6.4 | 3971 | 47 | · | -1
COc1ccccc1CCC(=O)Oc1ccccc1C#N | 8 | 0 | 2.0 | 6046 | 2 | -22 | -4
C=CCOc1ccc(C2N3CC4(CC)CN2CC(CC)(C3)C4=O)cc1 (stereo not drawn) | 5 | 7 | -3.2 | 3052 | -3 | 10 | 2
Cc1nn(C)c(Cl)c1S(=O)(=O)NC(c1ccccc1)[C@]1(C)CC1C(C)C(=O)Nc1ccc2ccccc2c1 (stereo partly drawn) | -2 | -1 | 4.4 | · | 7 | · | ·
COc1ccc(CCN(C)c2ccc(S(=O)(=O)N3CCCC3)cn2)cc1OC | -2 | -4 | 9.2 | 4085 | 24 | -3 | 10
CNC(=S)N(CCc1c(C)[nH]c2ccc(OC)cc12)Cc1cccnc1 | -3 | 20 | 4.0 | 4460 | 7 | -5 | 2
O=C(OCC(=O)c1c[nH]c2ccccc12)c1cccc(O)c1 | -2 | 1 | 1.7 | 8884 | -15 | -51 | 4
COCc1c(C#N)c(NCCc2ccccc2)nc(C)c1[N+](=O)[O-] | 8 | -5 | 3.7 | 2382 | 8 | -6 | 5
CCN1C(=O)[C@H]2[C@H]3CN=C(SCc4ccc(OC)cc4)N3[C@@](CC)(C(=O)OC)[C@H]2C1=O | -4 | 1 | 2.0 | 3989 | 3 | -8 | ·
Oc1ccccc1C=Nc1ccccc1-c1nc2ccccc2[nH]1 | 8 | 2 | 6.6 | 2066 | 21 | -51 | -4
C#CCOCCOCCOCCNc1nc(N2CCN(C(=O)C(CCC(=O)O)n3cc(C(N)CCCCN)nn3)CC2)nc(N2CCN(C(=O)C(C(C)O)n3cc(C(N)CCCCN)nn3)CC2)n1 (stereo not drawn) | 8 | 9 | 1.9 | · | -2 | · | ·
CC1Cc2ccccc2N1C(=O)COC(=O)c1ccc([N+](=O)[O-])o1 (stereo not drawn) | 16 | 15 | 7.3 | ? | 8 | -16 | ·
CN(C)CC(NC(=O)c1cccc(S(=O)(=O)Nc2ccc3c(c2)OCO3)c1)c1ccccc1 (stereo not drawn) | 4 | -2 | 4.7 | ? | 15 | -17 | ·
COc1c(N2CCN(C(=S)NC3CC4CCC3C4)C(C)C2)c(F)cc2c(=O)c(C(=O)O)cn(C3CC3)c12 (stereo not drawn) | · | · | 100* | 4189 | 100* | -10 | -6
Cc1ccc(NC(=S)N2CCN(S(C)(=O)=O)CC2)cc1Cl | 6 | 9 | 2.4 | 6022 | 6 | -20 | 0
Cn1c(SCC(=O)NC(C)(C)C)nnc1-c1cnccn1 | · | · | 2.6 | 2315 | 11 | -23 | -7
Cc1cc(N2CCN(C)CC2)nc2ccc(NC(=S)NCCN3CCc4ccccc4C3)cc12 | 13 | 18 | 3.0 | 4742 | 0 | -10 | 32
CCOC(=O)C1CCN(C(=O)c2ccc(CNS(=O)(=O)c3ccc(C)cc3)cc2)CC1 | 14 | 9 | 5.9 | 4848 | 6 | -10 | 0
Cc1ccc(N(CC(=O)NC2CCCC2)C(=O)c2c(C)noc2C)cc1C | 5 | 2 | -2.0 | 9378 | -2 | -18 | 3
O=C(N/C=C/c1ccco1)NCc1ccccc1 | 4 | 1 | 2.3 | 2133 | 4 | -12 | -8
Cc1nn(C(C)C)c(C)c1CN1CCC(C(=O)Nc2cccc(-c3cccc(F)c3)c2)CC1 | 13 | 11 | -8.3 | 5987 | -16 | -2 | 14
CC(=O)C1C2c3ccccc3OC1(C)N=c1sc(=Cc3cnn(C)c3)c(=O)n12 (stereo not drawn) | 1 | 4 | 1.2 | · | 0 | · | ·
Cc1ccc2nc(NCCc3ccccc3)c3nncn3c2c1 | -4 | -20 | -1.4 | 2998 | 3 | -19 | 21
CCOC(=O)CC1CCCCN1C(=O)c1ccc2oc(CCc3ccccc3)nc2c1 (stereo not drawn) | 6 | 9 | 17 | 5650 | 8 | -5 | 0
CCCCn1cnc2c(oc3ccccc32)c1=O | 18 | 13 | 4.9 | 3368 | 6 | -31 | -3
Cc1ccc(C)c(CSC2=NN3CCCC(=O)N=C3S2)c1 | 5 | 11 | 9.4 | 3765 | 22 | -20 | -1
Cc1ccccc1NC(=O)CN1CCN(C(=O)c2ccco2)CC1 | -2 | -8 | 3.7 | 5898 | 10 | -28 | 0
COc1ccc(NC(=O)c2nc(-n3nc(C)cc3C)ccc2Cl)cc1Cl | 3 | -2 | 11 | 2509 | -12 | -4 | 9
COc1ccc2c(=O)c(N3C(=O)c4ccccc4C3=O)c(C)oc2c1 | 19 | 4 | 4.7 | 6728 | -10 | -24 | 9
Cc1ccccc1NS(=O)(=O)c1ccc2oc(=O)ccc2c1 | 2 | 7 | 5.8 | 3948 | 3 | -19 | 2
CC(CCc1ccccc1)NCc1ccncc1 (stereo not drawn) | -2 | 12 | 2.3 | 16076 | 1 | -1 | -1
Cc1ccc(C(C)C)c(OCCSc2nc3ccccc3n2CC(=O)O)c1 | 4 | -1 | 6.4 | 3516 | -1 | -15 | 2
CCOc1ccc2c(c1)/C(=N/N1C(=O)c3ccccc3C1=O)C(=O)N2 | · | · | · | 4308 | · | -11 | -1

Structures from the list above containing fluorine, in the order listed:
Molecule | Mtb hypoxia rep | Mtb hypoxia rep growth | Sa RN4220 lethal | Bead autofluor | Sa ugtP lethal | PrP UTR inh | BJeLR lethal
O=C(Cc1ccc(F)cc1)N(c1ccccc1)C1C=CS(=O)(=O)C1 (stereo not drawn) | 14 | 6 | 5.1 | 10433 | 1 | -26 | -6
COCCCC1CCN(C(=O)C2CCC(=O)N(Cc3ccccc3F)C2)CC1 (stereo not drawn) | -2 | 12 | -0.3 | 7012 | 2 | 2 | -3
COc1c(N2CCN(C(=S)NC3CC4CCC3C4)C(C)C2)c(F)cc2c(=O)c(C(=O)O)cn(C3CC3)c12 (stereo not drawn) | · | · | 100* | 4189 | 100* | -10 | -6
Cc1nn(C(C)C)c(C)c1CN1CCC(C(=O)Nc2cccc(-c3cccc(F)c3)c2)CC1 | 13 | 11 | -8.3 | 5987 | -16 | -2 | 14

Remaining list, next part
Molecule | Mtb hypoxia rep | Mtb hypoxia rep growth | Sa RN4220 lethal | Bead autofluor | Sa ugtP lethal | PrP UTR inh | BJeLR lethal
Cn1cc(Cl)c(C(=O)Nc2nc3ccc(Cl)cc3s2)n1 | 1 | 5 | 2.8 | 12069 | -10 | -93 | 2
Cc1nn(CC(=O)Nc2ccc3c(c2)nc(CCN2CCCCC2)n3C)c(=O)c2ccccc12 | 11 | 2 | 2.5 | 20530* | 2 | -12 | 5
Cc1nc2ccccc2cc1C(=O)NN=Cc1cccs1 | 14 | 11 | 3.4 | · | 6 | · | ·
CCOC(=O)c1cc(C#N)c(NCc2ccccc2)nc1C | 5 | 4 | 0.1 | 11823 | 4 | -16 | -6
CCOc1cc(CNCCc2c[nH]c3ccccc23)cc(Cl)c1OCC(N)=O | -4 | 7 | 0.1 | 4378 | 3 | -24 | -5
Cc1cc(NN)nc(NS(=O)(=O)c2ccccc2)n1 | -5 | -7 | -1.0 | 4273 | 0 | -19 | -2
CCc1ccc(N(C)S(=O)(=O)c2ccc3[nH]cc(C(=O)NCCN4CCOCC4)c(=O)c3c2)cc1 | 4 | 4 | 6.2 | 7342 | 2 | -14 | -11
CCOc1ccc(OCc2ccc(C(=O)Nc3cccnc3)cc2)cc1 | 7 | -3 | -0.7 | 7053 | 0 | -64 | ·
COc1ccccc1-n1cnc(N)c1C(=O)c1ccccc1 | · | · | 0.9 | 4178 | 4 | -25 | 9
Fc1ccc(NC(=S)NNc2ncc(C(F)(F)F)cc2Cl)c(F)c1 | -6 | 4 | 40 | 4979 | 8 | 3 | 12
O=C(c1ccc(=O)[nH]n1)N1CCN(S(=O)(=O)c2cccc(F)c2)CC1 | 4 | -3 | 6.5 | 6168 | 13 | -15 | ·
COC(=O)C(NC(=O)c1ccccc1)=C1C=C(C)OC(C)=C1 | 12 | 3 | 7.4 | 2868 | -1 | -7 | -14
COc1ccc(-c2cc(C(=O)NC(C)C)no2)cc1 | 11 | 3 | 10 | 8380 | 9 | -85 | -5
CC(C)CN1CCN(Cc2cccc3ncccc23)CC1CCO (stereo not drawn) | 15 | 9 | 2.2 | 3979 | 3 | -11 | 0
CCc1ccccc1NC(=O)Nc1cccn(Cc2ccc(F)cc2)c1=O | 11 | 3 | -3.3 | 3199 | 8 | -20 | -6
O=c1[nH]c(=S)[nH]cc1Oc1ccc(Br)cc1Br | -4 | -2 | 3.1 | 2744 | -13 | -5 | ·
O=C(c1ccco1)N(CCCN1CCOCC1)c1nc(-c2ccc(F)cc2)cs1 | 3 | 17 | -0.2 | 12975 | 3 | -13 | -2
COc1ccc(/C=N/NC(=O)c2ccc(COCC(F)(F)C(F)F)cc2)cc1 | · | · | · | 2571 | · | -28 | -3
c1cnc2c(OCc3cn4cccnc4n3)cccc2c1 | 1 | -1 | 7.3 | 2846 | 1 | -24 | ·
Cc1oc(-c2ccccc2Cl)nc1CN1C(=O)CN=C(c2ccccc2)c2ccccc21 | 12 | 9 | 4.8 | 5605 | 13 | -11 | 1
O=C(O)CSc1cc(C(=O)c2cc(F)ccc2O)cn2c(=O)c3c(-c4ccccc4)csc3nc12 | 11 | 10 | 16 | 5595 | 17 | -9 | -7
COc1ccc2cc3cc(C(=O)NCCCN4CCOCC4)oc3nc2c1 | · | · | -1.9 | 2791 | -5 | -15 | 0
CCOc1cc(N2CCOCC2)c(OCC)cc1NC(=O)C(C)(C)C | 10 | 3 | 11 | 3741 | 4 | -25 | -8
